PINK1 modulator: A Quantitative High throughput Screen to Identify Chemical Modulators of PINK1 Expression; PINK1 immunofluorescence, high-content cytometry, 24 h; Potency, µM (series often up to 76.6 µM), for the others: at the top dose activation (PINK1 increase), hits mostly activators; hit rate 0.2% among 410,000; AID 624263, 2012; active = well fitted activation curve with a large enough effect; inconclusive = small, poorly fitted or top-dose-only effect; inactive = flat fitted curve, though single readings scatter; cell line not stated here;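 also: potency is read from the fitted curve at half-maximal effect; % of control where 0% means no effect; nearly all actives have a fitted effect of over 65% in size; a mitochondrial uncoupler was the plate control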
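Stable cell line treated 24 h with compounds at 5 concentrations (CCCP controls), then fixed and immunostained for PINK1 plus nuclear and cell stains; PINK1 immunofluorescence quantified by laser-scanning microplate cytometry.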
Menin MLL FP FL: qHTS Assay for Inhibitors Targeting the Menin-MLL Interaction in MLL Related Leukemias: Competition With Fluorescein Labeled MLL-derived Peptide; Fluorescence polarization, fluorescein-MLL peptide displacement from menin; FP activity change, % at 61.4 µM; 290,000 tested, under 10 active; inconclusive = falling polarisation curve, or a change in total fluorescence; inactive = total fluorescence flat and polarisation flat or rising; no compound was filed as active; the % refers to the polarisation; negative = inhibition;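 also: % of control where 0% means no effect; inhibitors lower the polarisation; unlabelled MLL peptide was the positive control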
ClpP mod: qHTS Assay for Activators of ClpP; purified B. subtilis ClpP, FRET peptide cleavage, 20 min; hit rate 1.9% among 340,000; ATP-dependent Clp protease proteolytic subunit (Bacillus subtilis (strain 168)), P80244; AID 651965, 2013; Potency, µM (titrated, usually from 57.5 µM), for inactives: top-dose activity change, negative = active; active = well fitted falling curve with a large enough effect; inconclusive = small, poorly fitted or top-dose-only effect; inactive = no such curve, though single readings can be large or run the other way; also: potency is read from the fitted curve at half-maximal effect; the source files actives as falling curves though it sought activators and does not explain the sign; nearly all actives have a fitted effect of over 65% in size; many hits overshoot -100%
Target sequence (P80244 whole entry, looked up): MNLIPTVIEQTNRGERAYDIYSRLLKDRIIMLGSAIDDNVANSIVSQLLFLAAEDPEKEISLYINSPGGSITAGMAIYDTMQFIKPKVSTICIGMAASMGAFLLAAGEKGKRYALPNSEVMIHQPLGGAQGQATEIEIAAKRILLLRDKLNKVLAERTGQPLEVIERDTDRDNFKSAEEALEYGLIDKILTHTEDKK
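FRET quenching reversal measured ClpP activation: 10 microg/mL B. subtilis ClpP at pH 8 with the FRET-FV decapeptide, read at 430 nm after 320 nm excitation. The 20-min minus 0-min signal was scaled between DMSO/no-enzyme wells and ADEP (5.8 microM final).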
Sfp PPTase inh: qHTS Assay for Inhibitors of Bacillus subtilis Sfp phosphopantetheinyl transferase (PPTase) | 4'-phosphopantetheinyl transferase ffp (Bacillus subtilis), Q9F4F7 | Biochemical Sfp PPTase activity, qHTS | Potency, µM, without a hit: max response, negative = inhibition, actives largely listed as inhibitors | hit rate 3.5% among 310,000; active = well fitted inhibition curve with a large enough effect; inconclusive = small, poorly fitted or top-dose-only effect, or another doubt; inactive = no such curve, though single readings can be large or run the other way;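 also: the enzyme is Sfp with the accession as filed and its product quenches rhodamine fluorescence; potency is read from the fitted curve at half-maximal effect; 0% = enzyme reaction without inhibitor and -100% = no enzyme wells; top concentration of the series not given in the record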
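Reaction rates are the 30-min fluorescence difference (ex 525, em 598 nm) in wells containing 15 nM Sfp, 5 uM rhodamine-CoA and 12.5 uM BHQ-2-YbbR at pH 7.6 with 10 mM MgCl2.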
D2 ag: Beta-Arrestin HTS for Positive Allosteric Modulators of the Human D2 Dopamine Receptor: Agonists. D(2) dopamine receptor (Homo sapiens), P14416. DiscoveRx PathHunter D2 beta-arrestin, luminescence, 90 min; 100% = 57 uM dopamine signal. activation, % (test concentration not listed). hit rate 0.084% among 360,000. AID 624465, 2012; in the data active = activation above about 40%; inconclusive = about 15% to 40%; inactive = below about 15%; also: compound concentration not given in the record; the text of the record calls up to 30% inactive
Target sequence (P14416 whole entry, looked up): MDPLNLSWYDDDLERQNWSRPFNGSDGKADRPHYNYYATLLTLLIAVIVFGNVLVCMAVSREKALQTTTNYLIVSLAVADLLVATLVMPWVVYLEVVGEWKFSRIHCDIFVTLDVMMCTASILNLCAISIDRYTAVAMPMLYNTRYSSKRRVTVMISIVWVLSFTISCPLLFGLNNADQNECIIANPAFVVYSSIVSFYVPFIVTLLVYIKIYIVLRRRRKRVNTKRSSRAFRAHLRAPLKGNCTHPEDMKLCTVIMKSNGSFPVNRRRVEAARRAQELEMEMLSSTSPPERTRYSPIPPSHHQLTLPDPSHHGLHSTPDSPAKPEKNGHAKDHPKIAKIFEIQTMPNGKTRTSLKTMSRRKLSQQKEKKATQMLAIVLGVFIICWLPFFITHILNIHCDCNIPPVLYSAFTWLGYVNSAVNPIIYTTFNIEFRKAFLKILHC
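Agonist mode: compounds alone added to overnight-plated D2 PathHunter cells for 90 min at 37 C, with 57 uM final dopamine (EC100) defining full response. Beta-arrestin recruitment detected by chemiluminescent reagent, read after 1 h at ambient temperature.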
gsp ag: qHTS for Agonist of gsp, the Etiologic Mutation Responsible for Fibrous Dysplasia/McCune-Albright Syndrome: qHTS; Potency, µM (doses to about 76.9 µM), for inactives: at the top dose activation (cAMP increase), usual class: activators; hit rate 0.13% among 340,000; gsp mutant cells, cAMP HTRF, 30 min; control for the full effect not named in the record; AID 624287, 2012; active = well fitted activation curve with a large enough effect; inconclusive = small, poorly fitted or top-dose-only effect, or another doubt; inactive = no such curve, though single readings can be large or run the other way; cell line not stated here;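 also: phosphodiesterase inhibitor Ro 20-1724 added with compounds to block cAMP breakdown; potency is read from the fitted curve at half-maximal effect; nearly all actives have a fitted effect of over 60% in size; about a fifth of the inactives were tested at one dose only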
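Cells stably selected in G418 were plated at 2000/well, grown 16-24 hr, then given compounds in DMSO with the PDE inhibitor […] (300 uM solution added) for 30 min at 37C; cAMP was read by HTRF.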
gsp antag: qHTS for Antagonists of gsp, the Etiologic Mutation Responsible for Fibrous Dysplasia/McCune-Albright Syndrome: qHTS | gsp-mutant cells, cAMP HTRF, 30 min; control for the full effect not named in the record | Potency, µM (top dose mostly 76.9 µM), for the others: at the highest dose activity change, negative = inhibition, most hits filed as inhibitors | hit rate 0.4% among 340,000; active = falling curve of any shape with a large fitted effect; inconclusive = falling curve, mostly with a smaller effect; inactive = flat or rising curve; cell line not stated here;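 also: intracellular cAMP measured with PDE inhibitor Ro 20-1724 present during compound exposure; potency is read from the fitted curve at half-maximal effect; % is scaled to controls: 0 for no effect and ±100 for the full control effect; nearly all actives have a fitted effect of over 65% in size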
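Cells, 2000/well, grown 16–24 h in DMEM 10% FBS with 0.5 mg/ml G418, then compounds plus […] (300 uM addition stock), 30 min at 37C. cAMP read by HTRF (cAMP-d2 and anti-cAMP antibody-K in lysis buffer) after 30 min RT.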
* hit, by the source's call; ? = inconclusive; . = no result given; & = joins results of further samples; [ ] = remark or other dose. Outcome played no part in choosing rows; overall some 5.1% were active at least once.

The opening 2 records as a preview:
SMILES,Menin MLL FP FL,Sfp PPTase inh,D2 ag,PINK1 modulator,ClpP mod,gsp ag,gsp antag
O=C(CSCc1ccccc1)N1CCN(S(=O)(=O)c2cccc(F)c2)CC1,.,.,-0.3,-3.2%,-0.8%,-29.6%,9.5%
CCCn1nnnc1NCc1ccc(N(C)C)cc1,1.1,16.4%,-3.1,-0.4%,1.8%,-0.3%[15.4 µM],8.2%

This part in full (from the top)
SMILES,Menin MLL FP FL,Sfp PPTase inh,D2 ag,PINK1 modulator,ClpP mod,gsp ag,gsp antag
O=C(CSCc1ccccc1)N1CCN(S(=O)(=O)c2cccc(F)c2)CC1,.,.,-0.3,-3.2%,-0.8%,-29.6%,9.5%
CCCn1nnnc1NCc1ccc(N(C)C)cc1,1.1,16.4%,-3.1,-0.4%,1.8%,-0.3%[15.4 µM],8.2%
CCc1nc2ccc(C(=O)NCc3ccccc3OC)cn2c1N(CCC(C)C)CCN(C)C,.,.,-4.2,-0.5%,-3.1%,.,.
O=C(COC(=O)CCc1c[nH]c2ccccc12)NCc1ccccc1,1.1,11.4%,3.9,5.9%,-0.5%,20.7%[15.4 µM],-1.2%
Nc1nnc(SCc2ccc([N+](=O)[O-])cc2)s1,3.6,12.6%,2.7,0.8%,.,-5.3%,1.2%
COc1ccccc1OCCSc1nc2ccccc2n1CCC(=O)O,-1.5,1.8%,1.2,3.0%,0.1%,-26.5%,7.7%
O=C(O)C(c1ccccc1)N1CCCCC1 (configuration not stated),-9.5,19.6%,-2.9,0.1%,.,?,9.5%
CSc1nc2ncncc2[nH]1,.,.,0.3,2.2%,.,13.8%,16.7%
CC(=O)N1CCc2cc(Br)cc(S(=O)(=O)NCc3ccc(Cl)cc3)c21,-1.0,10.2%,3.9,0.8%,.,-3.9%,-12.1%
CC(Oc1ccc([N+](=O)[O-])cc1)C(=O)NCC1CCCO1 (configuration not stated),.,17.0%,-3.2,0.6%,-1.0%,-40.7%[inhibitor],3.5%
CCNC(=S)N/N=C/c1cccc(C)c1,.,-10.0%,-1.6,1.3%,-1.5%,-1.1%,3.5%
O=C(CSc1nc2ccccc2[nH]1)NCc1ccccc1,0.6,1.8%,0.3,2.4%,-1.2%,-16.1%,7.1%
Cc1ccc2cc(C)c(SCC(=O)NCC3CCCO3)nc2c1 (configuration not stated),2.0,9.7%,-6.2,0.9%,.,?,-4.3%
CCOc1ccc(C(=O)Oc2cc(C)[nH]c(=O)c2[N+](=O)[O-])cc1OCC,.,2.8%,1.0,-0.6%,0.5%,1.2%,2.8%
CCCOc1ccc(C2NC(=S)NC(C)=C2C(=O)c2ccccc2)cc1OC (configuration not stated),6.3,-0.4%,-4.7,-1.3%,-3.3%,-3.5%,-11.0%
O=C(O)CN1C(=O)c2ccc(C(=O)c3ccccc3)cc2C1=O,-5.4,12.2%,-5.3,0.4%,-2.4%,26.5%,2.3%
CCCN(CCC)CCCNC(=O)CN1C(=O)CSc2ccc(S(=O)(=O)N3CCOCC3)cc21,-1.0,2.7%,2.9,1.1%,0.8%,6.2%,3.6%
COC(=O)CNC(=O)C(NC(=O)OCc1ccccc1)C(C)C (configuration not stated),-0.9,9.1%,-5.9,0.4%,-0.1%,-48.5%[inhibitor],-13.4%
CCOCC(=O)Nc1cccc(-c2nc3cccnc3s2)c1C,-0.2,7.6%,-1.9,0.2%,-13.1%,-17.4%,1.1%
CC(=O)c1ccc(N=c2scc(C)n2C(C)C)cc1,0.4,12.1%,-3.5,0.1%,0.2%,-2.6%[15.4 µM],18.2%
O=C(OCc1c(Cl)cccc1Cl)c1cnccn1,4.3,-1.6%,-1.5,0.2%,-0.5%,?,10.4%
CCCSC1=C(C#N)C(c2ccc(Cl)cc2Cl)CC(=O)N1 (configuration not stated),8.6,?,-0.5,?,-0.7%,?,-28.0%
COC(=O)CSc1nnnn1-c1ccccc1,8.3,13.8%,1.7,-0.3%,-0.4%,-33.0%[inhibitor],6.3%
COc1ccccc1NC(=S)NC(NC(=O)c1ccco1)C(Cl)(Cl)Cl (configuration not stated),1.7,-0.8%,2.2,4.8%,-5.9%,2.6%[15.4 µM],4.2%
COc1ccc(OCc2nc(N)nc(Nc3ccccc3OC)n2)cc1,2.8,-1.5%,-2.2,-1.3%,-1.1%,-0.6%,4.6%
O=C(CSCc1ccc(Cl)cc1)Nc1cccc(C(=O)O)c1,-1.1,16.4%,1.8,-2.0%,0.1%,-1.4%[15.4 µM],8.8%
CCCOC(=O)c1ccc(Oc2cn[nH]c2-c2ccc(OCC)cc2O)cc1,2.5,25.6%,-5.4,-2.1%,0.4%,?,?
COc1ccc(C(=O)Nc2c(N)nc(SCC(=O)c3ccccc3)[nH]c2=O)cc1,.,6.2%,-5.2,2.7%,-0.5%,2.5%[15.4 µM],-16.4%
COc1ccc(OC)c(S(=O)(=O)NCc2ccc(N3CCN(C)CC3)cc2)c1,.,6.0%,-4.2,-2.4%,0.7%,1.8%,11.4%
CC1=C(C(=O)OCc2ccccc2)C(c2cccnc2)n2nnnc2N1 (configuration not stated),1.1,15.3%,0.3,0.5%,-5.3%,2.2%,4.1%
O=C(O)C1C2C=CC(C2)C1C(=O)Nc1cccc(Cl)c1 (configuration not stated),1.2,-6.1%,1.0,-1.2%,-0.2%,9.7%,20.8%
Cc1ccc(C2C(C(=O)c3cc4ccccc4o3)=C(O)C(=O)N2CCN2CCOCC2)cc1 (configuration not stated),.,6.1%,-4.8,0.9%,-5.7%,?,11.4%
COc1ccc(OC)c(NC(=O)C(=O)N/N=C/c2ccccc2[N+](=O)[O-])c1,1.2,-4.5%,2.5,9.4%[38.3 µM],0.2%,-73.2%[inhibitor],1.6%
CCOC(=O)COc1ccc(S(=O)(=O)c2ccc(OCC(=O)OCC)cc2)cc1,2.5,8.2%,-1.2,.,-13.6%,-15.4%,-3.9%
CCN(CC)C(=O)CSc1nnc(-c2cccnc2)n1CCc1ccccc1,1.7,15.8%,1.9,?,-2.0%,1.7%,-0.9%
COc1ccc(S(=O)(=O)N2CCN(c3nc(-c4cccnc4)nc4ccccc34)CC2)cc1,.,.,0.2,1.6%,-7.0%,-15.0%,?
CC(Sc1nc2ccc(Br)cc2[nH]1)C(=O)O (configuration not stated),0.0,13.1%,-2.8,1.8%[38.3 µM],-0.7%,-4.8%,4.6%
O=C(Nc1cccnc1Cl)c1cc(-c2cccc(Cl)c2)on1,-1.0,-6.1%,-3.0,11.7%&0.1%,-3.1%,6.1%,3.8%
COc1ccccc1Cc1nc(-c2ccc(Br)o2)no1,2.7,-7.9%,6.4,2.8%,-3.1%,-23.3%,8.0%
Cc1cccc(N2C(=O)NC3(CCCCC3)C2=O)c1,-2.3,2.1%,-1.4,-1.5%,-3.5%,-2.2%,12.9%
CC(C)NC(=O)N(C)C[C@@H]1Oc2cc(C#Cc3ccccn3)ccc2S(=O)(=O)N([C@@H](C)CO)C[C@H]1C,.,.,-8.1,-0.2%,-2.2%,?,.
O=C(N/N=C/c1ccsc1)c1cc(O)cc(O)c1,8.0,-1.5%,0.0,2.6%,-0.5%,-9.8%,1.8%
O=C(c1cc2nc(C3CC3)cc(C(F)F)n2n1)N1CCOCC1,1.0,?,4.2,0.1%,-0.9%,7.1%,1.5%
COC(=O)CC1=C(C(=O)OC)C(c2cccs2)C(C#N)=C(N)O1 (configuration not stated),?,?,-0.8,-0.8%,-6.4%,0.0%,1.3%
CCOC(=O)c1c(C)nc(-c2ccccc2)nc1NC(=O)C(C)C,-1.5,-3.5%,-1.1,-0.9%,-2.8%,-8.6%,3.0%
Cc1nc2cc(Cl)c(Cl)cc2n1-c1ccccn1,.,.,-2.1,0.4%,4.0%,.,-12.3%
Cc1nn(C)cc1S(=O)(=O)N1CCN(c2ccccc2F)CC1,.,5.6%,2.2,2.3%,1.3%,-1.8%[15.4 µM],7.1%
CCCCCCCN1C(N(C)C)=NC[C@@H]1Cc1ccccc1,.,.,-2.5,1.6%,1.1%,.,14.2%
COc1ccc(-c2noc(CCC(=O)NC3CCCCCC3)n2)cc1,0.0,8.7%,-2.3,0.7%,-1.5%,-21.8%,?
O=C(N/N=C/c1ccc2c(c1)OCO2)c1ccc(Cn2cc([N+](=O)[O-])cn2)o1,3.4,5.4%,-4.7,2.7%,3.9%,5.6%,-0.6%
O=C(Cn1c(=O)[nH]c2sc3c(c2c1=O)CCCC3)NCC1CCCO1 (configuration not stated),0.9,9.3%,2.5,-2.0%,-11.5%,?,-4.0%
CCNC(=S)Nc1ccc2c(c1)c(=O)n(C)n2-c1ccc(C(C)(C)C)cc1,.,.,2.8,-0.4%,?,.,.
CN(C(=O)COC(=O)C12CC3CC(CC(C3)C1)C2)c1c(N)n(Cc2ccccc2)c(=O)[nH]c1=O,.,.,-2.8,13.5%,-2.7%,4.5%,11.4%
CN(C)c1ccc(C(=O)Nc2cccc(S(=O)(=O)NC3=NCCCCC3)c2)cc1,.,.,4.3,2.1%,-9.9%,-16.7%,-8.8%
CC(c1ccccc1)N1C(=O)NC(NC(=O)C(C)(C)C)(C(F)(F)F)C1=O (configuration not stated),1.5,9.9%,2.6,1.1%,1.0%,0.0%,7.4%
